Source: PubChem BioAssay
RVFV N-RNA FP: inhibitors of RVFV nucleoprotein–RNA binding, primary screen, biochemical, fluorescence polarization | P21700 | RVFV N-RNA binding; active compounds read low | % bound, % (test concentration not listed) | 0.1% of 20,000 active;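 active = between 0 and 58% in either replicate with normal brightness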;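 note: 100 nL library stock added to about 12 µL; 100% = protein and probe without compound and 0% = probe alone; numbers are from one replicate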
Target sequence (P21700 whole entry, looked up): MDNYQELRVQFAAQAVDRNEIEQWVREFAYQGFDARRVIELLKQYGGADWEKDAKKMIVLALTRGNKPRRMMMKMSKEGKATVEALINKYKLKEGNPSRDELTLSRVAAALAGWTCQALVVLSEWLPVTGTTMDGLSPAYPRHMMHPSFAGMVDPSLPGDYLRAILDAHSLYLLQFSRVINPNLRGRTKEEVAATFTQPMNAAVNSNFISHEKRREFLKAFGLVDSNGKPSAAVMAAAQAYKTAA
* = called active by the depositor; & = joins results of further samples. Only part of the results is shown, so the mix of outcomes need not match the whole.

Screening O=C(Nc1ccccn1)c1cc2c(s1)CCCC2 returned RVFV N-RNA FP 94.
For CN1c2ccccc2C(=O)C(=C2SCCCS2)S1(=O)=O the results were RVFV N-RNA FP 91.
Screening CCCN(CCC)CCc1ccc(O)c(O)c1 returned RVFV N-RNA FP 95.
`COc1ccccc1N=C(NN)c1ccc2ccccc2n1` gave RVFV N-RNA FP 98.
Screening CC1CC(=S)Nc2ccccc2S1 (stereo unspecified) returned RVFV N-RNA FP 90.
Screening CCOc1cc(CC(=O)N[C@@H](CC(C)C)c2ccccc2N2CCCCC2)ccc1C(=O)O returned RVFV N-RNA FP 96.
For CC(NC(=O)CSc1nc2ccccc2c(=O)n1N)c1ccccc1 (stereo unspecified) the results were RVFV N-RNA FP 95.
`NC(=O)CSc1nnc(SCc2ccc(Cl)cc2)s1` gave RVFV N-RNA FP 95.
`O=[N+]([O-])c1ccc2c(c1)S(=O)(=O)C=C2` gave RVFV N-RNA FP 106.
Screening CN1C(=O)c2ccc(NC(=O)c3ccc4ncsc4c3)cc2C1=O returned RVFV N-RNA FP 88.
`O=C(CCN1CCCCC1)N1N=C(c2ccc(Cl)cc2)CC1c1ccco1` (stereo unspecified) gave RVFV N-RNA FP 98.
O=C(COc1ccc2c(c1)CCC2)N1CCC2(CC1)OCCO2 was read as RVFV N-RNA FP 94.
For CCC(=O)Nc1nnc(-c2cccc(OC)c2)o1 the results were RVFV N-RNA FP 91.
`CCn1cc(SCC(=O)NCc2ccc3c(c2)OCO3)c2ccccc21` gave RVFV N-RNA FP 85.
Screening COC(=O)c1cnc2c(C(F)(F)F)cccc2c1OC returned RVFV N-RNA FP 107.

By substructure, the compounds so far with nitrogen in an aromatic ring.
Screening O=C(Nc1ccccn1)c1cc2c(s1)CCCC2 returned RVFV N-RNA FP 94.
`COc1ccccc1N=C(NN)c1ccc2ccccc2n1` gave RVFV N-RNA FP 98.
For CC(NC(=O)CSc1nc2ccccc2c(=O)n1N)c1ccccc1 (stereo unspecified) the results were RVFV N-RNA FP 95.
`NC(=O)CSc1nnc(SCc2ccc(Cl)cc2)s1` gave RVFV N-RNA FP 95.
Screening CN1C(=O)c2ccc(NC(=O)c3ccc4ncsc4c3)cc2C1=O returned RVFV N-RNA FP 88.
For CCC(=O)Nc1nnc(-c2cccc(OC)c2)o1 the results were RVFV N-RNA FP 91.
`CCn1cc(SCC(=O)NCc2ccc3c(c2)OCO3)c2ccccc21` gave RVFV N-RNA FP 85.
Screening COC(=O)c1cnc2c(C(F)(F)F)cccc2c1OC returned RVFV N-RNA FP 107.

Next compounds follow.
Screening Cc1c(C#N)c(NC(=O)c2ccc(Cl)cc2)n(CC2CC2)c1C returned RVFV N-RNA FP 98.
For Cc1[nH]c(=O)c(C#N)cc1-c1ccncc1 the results were RVFV N-RNA FP 95&96&100.
`NC(=O)c1ccsc1NC(=O)c1cccs1` gave RVFV N-RNA FP 100.
Screening COc1ccc(CC(N)=O)cc1OC returned RVFV N-RNA FP 96.
CC1(C)OC(=O)C(=C2SCCCS2)C(=O)O1 was read as RVFV N-RNA FP 97.
For Cc1ccc(S(=O)(=O)c2ncsc2Cl)cc1 the results were RVFV N-RNA FP 110.
For Cc1ccc2cccc(I)c2n1 the results were RVFV N-RNA FP 82.
Screening CCOc1ccc(NC(=O)c2cnn(-c3ccccc3)c2NC(=O)c2ccco2)cc1 returned RVFV N-RNA FP 100.
Cn1c(=O)c2c(nc3n2CC(C(C)(C)C)=NN3Cc2cccc3ccccc23)n(C)c1=O was read as RVFV N-RNA FP 96.
Screening CCOC(=O)c1cnn(-c2ccccc2)c1NC(=O)C(F)(F)F returned RVFV N-RNA FP 93.
Screening CCCCNC(=O)NS(=O)(=O)c1ccc(C)cc1 returned RVFV N-RNA FP 99&111&94.
Screening O=C(CSC1=NS(=O)(=O)c2ccccc2N1)N1CCCc2ccccc21 returned RVFV N-RNA FP 100.
`COc1ccc(OCCSc2nnc(CCNC(=O)c3ccc(OC)cc3)n2C)cc1` gave RVFV N-RNA FP 103.
For CC(=O)NCCSCc1c(F)cccc1Cl the results were RVFV N-RNA FP 98.
O=c1[nH]c(O)c(C=NCc2ccc(Cl)cc2)c(=O)[nH]1 was read as RVFV N-RNA FP 101.
COc1ccc(C(=O)c2cnc3ncccn23)cc1 was read as RVFV N-RNA FP 97.
`CN(C)c1ccc(NC(=S)NC2CCCCC2)cc1` gave RVFV N-RNA FP 94.
`S=C1N2CCN=C2SC2=NCCN12` gave RVFV N-RNA FP 90.
For Cc1cc(C)nc(Nc2ccc(Nc3ccccc3)cc2)n1 the results were RVFV N-RNA FP 100.
For CC(CCCC(C)(C)O)CC1OCC(C)O1 (stereo unspecified) the results were RVFV N-RNA FP 106.
`COc1cc(CN2CCN(c3ncccn3)CC2)ccc1O` gave RVFV N-RNA FP 95.
For CN(C)c1ccc(C(=S)N2CCN(C(N)=S)CC2)cc1 the results were RVFV N-RNA FP 104.
Cc1cc(C(=O)NNc2c(Cl)cc(Cl)cc2Cl)nn1C was read as RVFV N-RNA FP 108.
Screening Cc1ccc(NC2=NC(C(=O)Nc3ccc(F)c(Cl)c3)CC(=O)N2)cc1 (stereo unspecified) returned RVFV N-RNA FP 101.
Cc1cc(C=C2C(=O)c3ccccc3C2=O)c(C)n1C was read as RVFV N-RNA FP 98.
`O=C(NCc1ccccc1)c1cccnc1N1CCCC1` gave RVFV N-RNA FP 105.
For CN(C)S(=O)(=O)c1ccc(NC(=O)COc2ccccc2)cc1 the results were RVFV N-RNA FP 91.
For CCOC(=O)c1nc2c3c4c(sc3ncn2n1)COC(C)(C)C4 the results were RVFV N-RNA FP 104.
For COc1c(Br)csc1C(=O)NN the results were RVFV N-RNA FP 97.
CCOC(=O)c1oc2cc(N)ccc2c1C was read as RVFV N-RNA FP 104.
`Cc1ccc(OCC(O)CN2C(=O)c3ccccc3C2=O)cc1` (stereo unspecified) gave RVFV N-RNA FP 95.
COc1c(N2CCNC(C)C2)c(F)cc2c(=O)c(C(=O)O)cn(C3CC3)c12 (stereo unspecified) was read as RVFV N-RNA FP 100&89.
Screening CCOC(=O)Cc1csc(NC(NC(=O)CC)(C(F)(F)F)C(F)(F)F)n1 returned RVFV N-RNA FP 99.
`COc1ccc(-c2noc(CN3CCCCC3)n2)cc1OC` gave RVFV N-RNA FP 106.
Screening C=CCn1c(SCc2cccc(C#N)c2)nnc1C12CC3CC(CC(C3)C1)C2 returned RVFV N-RNA FP 89.
`Brc1ccc(CNc2ccc(-c3nc4ncccc4o3)cc2)cc1` gave RVFV N-RNA FP 93.
For CC1=CC(C)(C)N2C(=O)C3(N=C(N)NC(Nc4ccccc4)=N3)c3cc(C)cc1c32 (stereo unspecified) the results were RVFV N-RNA FP 96.
COC(=O)NC1CCCCC1NC(=O)OC (stereo unspecified) was read as RVFV N-RNA FP 99.
S=C(NCc1ccncc1)NCc1ccco1 was read as RVFV N-RNA FP 96.
`CCn1c(CNC(=O)COc2c(C)cccc2C)nnc1SCC(=O)Nc1ccc(OC)cc1` gave RVFV N-RNA FP 85.
For CCCCc1ccc(NC(=O)OC)cc1 the results were RVFV N-RNA FP 100.
`CCc1nc2sc(C(c3ccccc3)N3CCCCC3)c(O)n2n1` (stereo unspecified) gave RVFV N-RNA FP 107.
CCCC1CCC(c2ccc(C#N)c(=O)[nH]2)CC1 (stereo unspecified) was read as RVFV N-RNA FP 92.
`CCn1cc(NC(=S)Nc2cc(Cl)ccc2OC)c(C(N)=O)n1` gave RVFV N-RNA FP 88.
For Cc1cc(OCCNCCN)cc(C(C)C)c1 the results were RVFV N-RNA FP 103.
Screening COC(=O)c1c(NC(=O)c2ccoc2C)sc2c1CCC(C)C2 (stereo unspecified) returned RVFV N-RNA FP 95.
For N#C[C@@H]1C[C@@H]2C[C@@H]2N1C(=O)[C@@H](N)C12CC3CC(CC(O)(C3)C1)C2 the results were RVFV N-RNA FP 97.
For O=C(c1ccc(Br)cc1)N1CCN(c2ccc(N3CCCCC3)nn2)CC1 the results were RVFV N-RNA FP 102.
Screening CC1CCCCN1C(=O)c1cc2c(=O)n3ccccc3nc2s1 (stereo unspecified) returned RVFV N-RNA FP 99.
O=C(Nc1cc(C(F)(F)F)ccc1F)C1CCC1 was read as RVFV N-RNA FP 84.
For C/C(=C/C(=O)O)C(=O)Nc1ccc(C)cc1 the results were RVFV N-RNA FP 94.
For N#Cc1cnc2cnc(NCc3cccnc3)cc2c1NC1CCCCCC1 the results were RVFV N-RNA FP 101.
`CNC(=S)NNc1nc(N2CCOCC2)nc(N2CCOCC2)n1` gave RVFV N-RNA FP 94.
For Cc1ccsc1CN1CCN(Cc2ccccc2)CC1 the results were RVFV N-RNA FP 93.
For Cc1ccnc(NS(=O)(=O)c2ccccc2)n1 the results were RVFV N-RNA FP 94.
For CCn1cc(Br)c(C(=O)N2CCN(c3ccccc3)CC2)n1 the results were RVFV N-RNA FP 111.
For CSc1cccc(NC(=O)CC#N)c1 the results were RVFV N-RNA FP 97.
For NC(=O)Nc1sc(-c2ccc(F)cc2)cc1C(N)=O the results were RVFV N-RNA FP 99.
CONC(=O)Nc1ccc(C)cc1 was read as RVFV N-RNA FP 97.
Screening C/C(=N/NC(=O)c1ccoc1C)c1ccc(NC(=O)c2ccco2)cc1 returned RVFV N-RNA FP 91.
Screening CC1CCN(C(=O)c2cccc(-c3nnc(-c4ccccc4)o3)c2)CC1 returned RVFV N-RNA FP 96.
Screening CCCN[C@H]1CCc2nc(N)sc2C1 returned RVFV N-RNA FP 101&97&106&103.
Screening CCC(=O)Nc1ccccc1C(=O)N1CCCC1 returned RVFV N-RNA FP 86.
C=C(C)CC1C(=O)N(S(=O)(=O)c2ccc(Cl)cc2)N=C1C (stereo unspecified) was read as RVFV N-RNA FP 92.
Screening Cc1cc(C)cc(C(=O)Nn2cnnc2)c1 returned RVFV N-RNA FP 111.
`Cc1ccc(S(=O)(=O)Nc2ccccc2-c2nnc(-c3ccc(Cl)cc3)o2)cc1` gave RVFV N-RNA FP 96.
Screening C/C=C/c1ccc(OC)c(OC(C)=O)c1 returned RVFV N-RNA FP 107.
`CC(=O)N1c2ccccc2NC(=O)C1CC(=O)Nc1ccccc1Cl` (stereo unspecified) gave RVFV N-RNA FP 95.
CSc1ccccc1NC(=O)Nc1ccccc1 was read as RVFV N-RNA FP 95.
COC(=O)C(C)(N)Cc1ccc(O)cc1 (stereo unspecified) was read as RVFV N-RNA FP 96.
Screening CCc1nc(N)nc(N)c1-c1ccc(Cl)cc1 returned RVFV N-RNA FP 103.
`CCCCNC(=O)c1cc2cc(CC)ccc2[nH]1` gave RVFV N-RNA FP 108.
COc1cccc(NC(=O)Cn2nc(-c3ccccc3)ccc2=O)c1 was read as RVFV N-RNA FP 90.
`CCC(=O)Nc1cc(-c2nc3cc(OC)ccc3o2)ccc1C` gave RVFV N-RNA FP 101.
`CCC(CC)NC(=O)c1cc(Cl)ccc1Cl` gave RVFV N-RNA FP 100.
Screening Cc1onc(-c2c(Cl)cccc2Cl)c1C(=O)O/N=C(\N)CN1CCSCC1 returned RVFV N-RNA FP 99.
COc1cc(OC)c(CNc2ccc3cn[nH]c3c2)cc1Br was read as RVFV N-RNA FP 98.
For COCCNC(=S)Nc1nc(OC)cc(OC)n1 the results were RVFV N-RNA FP 98.
Screening CCN1C(=O)/C(=C/c2ccccc2NC(C)=O)OC1=S returned RVFV N-RNA FP 82.
CN1[C@@H]2CCC[C@H]1CC(NC(=O)c1nn(C)c3ccccc13)C2 (stereo partly specified) was read as RVFV N-RNA FP 96&102.
For CC(=O)NC(Cc1cnc[nH]1)C(=O)O (stereo unspecified) the results were RVFV N-RNA FP 91.
`O=C(O)CN(CCOCCOCCN(CC(=O)O)CC(=O)O)CC(=O)O` gave RVFV N-RNA FP 94.
For CCC(C)(C)NC(=O)c1ccc2c(c1)OCO2 the results were RVFV N-RNA FP 97.
Screening O=C(O)C1Cc2ccccc2N1 (stereo unspecified) returned RVFV N-RNA FP 95.
Screening Cc1nnc(SCC(=O)c2ccc3c(c2)OCCO3)o1 returned RVFV N-RNA FP 97.
COc1cc(NC(=S)N(N)CCO)c(OC)cc1Cl was read as RVFV N-RNA FP 99.
`N/C(=N/O)C(c1ccccc1)c1ccccc1` gave RVFV N-RNA FP 92.
`Cc1cccc2nc3c(nc12)CCCC3` gave RVFV N-RNA FP 97.
Screening CCC(Cc1ccccc1)NC(=O)C1CC1 (stereo unspecified) returned RVFV N-RNA FP 97.
For COc1ccc(NC(=O)COc2cccc3c2CCNC3=O)c(OC)c1 the results were RVFV N-RNA FP 90.
O=C(OCCS(=O)(=O)c1ccc(C(F)(F)F)cn1)c1cccc(Cl)c1 was read as RVFV N-RNA FP 87.
For Cc1ccc(/C=C(/C#N)C(=O)Nc2ncc(Cc3cc(Cl)ccc3Cl)s2)o1 the results were RVFV N-RNA FP 91.
`Cc1ccc(S(=O)(=O)N2CCN(C(=O)N(C)c3ccccc3)CC2)cc1` gave RVFV N-RNA FP 91.
For CCSc1sc(CC)cc1C(N)=O the results were RVFV N-RNA FP 103.
For CC1CCC[C@H](O)CCCCCc2cc(O)cc(O)c2C(=O)O1 (stereo partly specified) the results were RVFV N-RNA FP 92.
`COc1ccc(C(=O)COc2coc(CN3CCc4ccccc4C3)cc2=O)cc1` gave RVFV N-RNA FP 91.
N[C@@H](Cc1cnc[nH]1)C(=O)O was read as RVFV N-RNA FP 99.
For Nc1noc2c1C(c1ccc(F)c(Oc3ccccc3)c1)C1=C2CCCC1=O (stereo unspecified) the results were RVFV N-RNA FP 90.
`COc1cccc(CNc2cccc(F)c2)c1` gave RVFV N-RNA FP 100.
Screening CC(N)Cc1c[nH]c2ccc(O)cc12 (stereo unspecified) returned RVFV N-RNA FP 97.

2 entries picked at random from those above:
`CN(C)c1ccc(NC(=S)NC2CCCCC2)cc1` gave RVFV N-RNA FP 94.
For CCC(C)(C)NC(=O)c1ccc2c(c1)OCO2 the results were RVFV N-RNA FP 97.
